MT1-MMP promoter – MT1-MMP gene expression reporter suppression – cell-based, luciferase reporter, luminescence (AID 618). MT1-MMP promoter luciferase reporter cells, luminescence. calls from a first round at 10 µM; hits with a dose series show EC50 in µM. actives 0.62% (n = 87,000);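 active = over half of the reporter light lost at 10 µM or EC50 under 50 µM; inactive = the rest and hits that failed the dose series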;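 also: actives suppress MT1-MMP promoter-driven transcription so potencies describe inhibitors; HT1080 fibrosarcoma cells; overnight exposure; toxic or luciferase-blocking compounds were not removed from the actives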
WNV NS2B-NS3 inh – WNV NS2B-NS3 proteinase inhibition | P06935 | WNV NS2B-NS3 protease, fluorogenic substrate Ex360/Em465; hits give low values | z-score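 (tested at a level between 10 and 100 µM)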 | actives 0.18% (n = 65,000);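 active = z-score at -3 or under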;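 also: score is relative to mean and spread of the compound wells of a plate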
Target sequence (P06935 1371-1501 limits assumed): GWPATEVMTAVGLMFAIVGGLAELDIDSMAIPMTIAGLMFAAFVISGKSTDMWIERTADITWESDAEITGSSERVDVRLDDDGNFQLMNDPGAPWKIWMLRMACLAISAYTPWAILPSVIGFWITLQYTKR
Target sequence (P06935 1502-1679 limits assumed): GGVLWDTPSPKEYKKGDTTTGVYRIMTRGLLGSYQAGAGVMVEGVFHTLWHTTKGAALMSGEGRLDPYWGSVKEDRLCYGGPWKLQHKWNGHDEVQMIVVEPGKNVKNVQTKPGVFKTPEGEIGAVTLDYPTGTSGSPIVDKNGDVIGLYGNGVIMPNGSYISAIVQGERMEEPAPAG
Hsc70 ATP site – Hsc70 inhibitors, probe displacement, primary screen, biochemical, fluorescence polarization (AID 568) | Hsc70 fluorescence polarization, probe displacement; higher % means a stronger effect; strong numbers were not always called active | one-dose displacement, % at 20 µM; IC50 in µM for titrated hits | 83,000 tested, under 10 active;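 active = displacement above 50% without optical interference and an IC50 on retest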;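 also: ATPase domain with a fluorescein-tagged ATP probe; 0% = vehicle and 100% = excess ADP; read after one hour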
* marks the source's active call; other numbers are inactive results; i = inactive; . = not tested or not shown; + = active, no number.

SMILES | MT1-MMP promoter | WNV NS2B-NS3 inh | Hsc70 ATP site
O=C(C1CC(c2ccccc2O)=NO1)N1CCCC1 (stereo not given) | i | -0.13 | 7.8%
CCS(=O)(=O)N1CCC(C(=O)NCc2ccc(F)cc2Cl)CC1 | i | -0.52 | 1.8%
CC(=O)N=C1SC2CS(=O)(=O)CC2N1c1ccccc1Cl (stereo not given) | i | -1.1 | -5.1%
O=C(NCCN1CCc2ccccc2C1)Nc1ccc(F)cc1 | i | -0.81 | 3.0%
CCCS(=O)(=O)N1CCCC(c2nc(-c3ccc(OC)cc3)no2)C1 (stereo not given) | i | . | 9.9%
O=C(Cn1c(=O)oc2cc(S(=O)(=O)N3CCCC3)ccc21)NC1CCCc2ccccc21 (stereo not given) | i | -0.86 | -5.0%
NC1=NC(c2ccc(F)cc2)n2c(nc3ccccc32)N1 (stereo not given) | i | -0.18 | 0.9%
COc1ccc(C2CC(=O)C3=C(C2)Nc2ncnn2C3c2ccccc2C)c(OC)c1 (stereo not given) | i | 0.48 | -1.6%
COc1cc(S(=O)(=O)Nc2cccc(C(=O)O)c2)c(OC)cc1Cl | i | . | 1.2%
COc1ccc(OC)c(NC(=O)C2CCCN(S(=O)(=O)c3cccc4nonc34)C2)c1 (stereo not given) | i | . | -1.3%
Cc1cc(Oc2ccc(-c3ccccc3)cc2)nc(N2CCOCC2)n1 | i | 0.01 | 0.6%
O=C(O)CCCCCCCCCC(=O)c1cccs1 | i | . | -2.2%
Cc1cc(C)nc(SCC(=O)Nc2ccc(Br)cn2)n1 | i | -0.9 | 1.9%
Cc1nc2nc(SCC(=O)NCCN3CCOCC3)nn2c(C)c1Cc1ccccc1 | i | . | 1.6%
C/C=C(/C)C(=O)OC1c2c(ccc3ccc(=O)oc23)OC(C)(C)C1OC(C)=O (stereo not given) | i | . | 2.5%
Cc1nnc(SCC(=O)N2CCN(c3ccccc3)CC2)n1-c1ccccc1 | i | . | -1.2%
Cc1c(NC(=O)Nc2ccc3c(c2)OCO3)c(=O)n(-c2ccccc2)n1C | i | -0.53 | -1.3%
O=S(=O)(CCc1nc2ccccc2s1)c1ccc(Cl)cc1 | i | . | 0.3%
O=C(CN(Cc1ccccc1F)C(=O)Cn1nnc(-c2cccs2)n1)NC1CCCCC1 | i | . | -1.4%
Cc1c(NC(=O)C2(c3ccccc3)CCCC2)c(=O)n(-c2ccccc2)n1C | i | . | -2.3%
Cc1cccc2cc(CN(CC3CCCO3)C(=O)c3cccnc3)c3nnnn3c12 (stereo not given) | i | 2.1 | -3.6%
CCOCCCn1c(=S)[nH]c2cc(C(=O)NCCOC)ccc2c1=O | i | 0.56 | -7.1%
CCCc1nnc(NC(=O)c2c(O)c3c([nH]c2=O)CCCC3)s1 | i | 0.43 | 1.2%
Cc1ccc(C2CC(c3cccs3)n3nc(N)nc3N2)cc1 (stereo not given) | i | 0.22 | 2.9%
Cc1ccc(N2CCN(C(=O)N3CCCC3)CC2)cc1Cl | i | -0.2 | -4.4%
C/C=C/C=[N+](\[O-])C(C)/C(=N/O)c1ccc(F)cc1 (stereo not given) | i | 2 | -2.0%
Oc1ccccc1-c1cc(C(F)(F)C(F)F)nc(-c2ccccc2)n1 | i | -0.84 | 7.9%
Cc1cc(C)n2nc(C(=O)Nc3ccc4c(c3)OCO4)cc2n1 | i | . | 3.5%
Cc1cc(OCC(=O)N2CCCC2)ccc1Cl | i | -1.6 | 1.6%
O=C(CSc1nnnn1-c1ccc2c(c1)OCCO2)OC1CCCCC1 | i | 0.3 | 0.7%
OCCN(Cc1ccccc1)Cc1ccccc1F | i | 1 | -1.1%
O=C(O)c1cn(-c2ccccc2)nc1-c1ccncc1 | i | -0.41 | -0.8%
Cc1nc2ccc(F)cc2cc1C(=O)NC(C)C | i | 1.2 | -3.6%
CCOC(=O)Cn1c(=O)c2c(nc(Br)n2Cc2ccccc2Cl)n(C)c1=O | i | . | -2.4%
O=C(CSc1nnc(-c2ccco2)n1Cc1ccccc1)NC(=O)NCc1ccco1 | i | 0.44 | -6.3%
COc1cccc(-c2cc(C(=O)O)no2)c1 | i | . | -6.6%
COC(=O)C1C2C=CC3(CN(c4ccc(Cl)c(F)c4)C(=O)C13)O2 (stereo not given) | i | 1.6 | -3.2%
CCCc1nc(SCC(=O)Nc2ccccc2OC)c2c(=O)n(C)c(=O)n(C)c2n1 | i | -0.88 | 4.1%
CCOc1nc(-c2ccc(OC)cc2)ccc1-c1noc(-c2ccncc2)n1 | i | 1.2 | -6.8%
CCOC(=O)CC1(c2ccccc2)CCOC(C)(C)C1 (stereo not given) | i | . | 0.2%

Gathered by group: the compounds so far containing a thiophene ring, fused or not.
SMILES | MT1-MMP promoter | WNV NS2B-NS3 inh | Hsc70 ATP site
O=C(O)CCCCCCCCCC(=O)c1cccs1 | i | . | -2.2%
O=C(CN(Cc1ccccc1F)C(=O)Cn1nnc(-c2cccs2)n1)NC1CCCCC1 | i | . | -1.4%
Cc1ccc(C2CC(c3cccs3)n3nc(N)nc3N2)cc1 (stereo not given) | i | 0.22 | 2.9%

Carrying on.
SMILES | MT1-MMP promoter | WNV NS2B-NS3 inh | Hsc70 ATP site
Cc1cc2nc(C3CCN(CC4COc5ccccc5O4)CC3)[nH]c2cc1C (stereo not given) | i | 1.1 | 0.7%
O=C(CN1C(=O)c2ccccc2C1=O)Nc1ccccc1C(=O)NC1CCCCCC1 | i | . | 4.3%
Cc1nn(Cc2ccc(F)cc2)c(C)c1NC(=O)c1cnn2cccnc12 | i | 0.17 | -2.3%
CC(=NC1CCCC1)c1c(C)[nH]n(-c2nc3ccccc3s2)c1=O | i | 0.8 | -6.0%
Cc1nc2[nH]onc2c2nccc(=O)c12 | i | -0.1 | -1.7%
CCOC(=O)CSc1nnc(-c2ccccc2OC)o1 | i | -0.41 | 5.0%
CC(C)n1c(N2CCN(C(=O)NCc3ccccc3)CC2)nc2ccccc21 | i | 0.69 | -0.1%
Cc1ccc2nsnc2c1S(=O)(=O)NCc1ccc2c(c1)OCO2 | i | 0.57 | 1.0%
COc1ccc(OC(C)C(=O)Nc2cccc(OC)c2)cc1 (stereo not given) | i | -0.55 | 4.7%
CCOC(=O)N1CCN(C(=O)c2ccccc2-c2ccccc2)CC1 | + | 0.37 | -7.4%
CCCCN(C(=O)CCC(=O)Nc1cc(C)on1)C(C(=O)NC(C)(C)C)c1cccc(OC)c1OC (stereo not given) | i | . | 3.9%
CN(C)/C=N/c1sccc1C(N)=O | i | -0.45 | 2.7%
COc1ccc(-c2nn(C)c(=O)c3ccccc23)cc1CNS(C)(=O)=O | i | 0.51 | 2.4%
CC(C)(C)C(=O)Cn1c(NCCO)nc2ccccc21 | i | . | -0.6%
CNC(=O)COC(=O)c1cc(F)c(F)cc1Cl | i | 0.66 | 1.3%
CCC(CC)C(=O)Nc1cc(C)c2c(=O)oc3ccccc3c2n1 | i | -0.56 | 1.3%
Cc1ccc(S(=O)(=O)NCCOC(=O)Nc2sc(=S)n(C)c2C)cc1 | i | 0.39 | 2.2%
N#CCSc1nnc(-c2cnccn2)n1Cc1ccccc1 | i | . | -0.4%
Cc1ccc(C(CC(=O)c2ccco2)SCCO)cc1 (stereo not given) | i | -0.29 | 1.6%
COC(=O)c1cc(COc2ccc3oc(C)c(C(=O)OC(C)C)c3c2)c(C)o1 | i | . | 5.5%
Cc1nc(SCc2cccc(F)c2)[nH]c(=O)c1C#N | i | 1.2 | -2.2%
O=c1c2ccccc2nnn1CSc1ccc2c(c1)OCCO2 | i | -1.9 | -2.7%
COc1cc(CN2CCN(c3cccc(Cl)c3)CC2)cc(OC)c1OC | i | -1.9 | 1.9%
Cc1cccc(OCC(O)Cn2c(NCCCOC(C)C)nc3c2c(=O)[nH]c(=O)n3C)c1 (stereo not given) | i | 0.84 | -7.4%
CCCCCNC(=O)Cc1ccc(OC)cc1 | i | -0.46 | 2.2%
COc1ccc(C(=O)Nc2ccc(S(=O)(=O)NC(C)=O)cc2)cc1 | i | -0.27 | 5.2%
COCCOC(=O)C1=C(C)NC2=C(C(=O)CC(C)(C)C2)C1c1ccc2c(c1)OCO2 (stereo not given) | i | 1.2 | 1.6%
CCOC(=O)c1cc2c(=O)[nH]ccc2nc1C | i | 0.55 | 0.5%
CCOC(=O)CSc1nc2c(c(=O)n(C)c(=O)n2C)n1CCCc1ccccc1 | i | 0.92 | 4.4%
COc1nc2c(C)cccc2cc1-c1noc(-c2ccncc2)n1 | i | 0.28 | -4.5%
COCCn1c(SCC(=O)c2ccc3c(c2)OCCO3)nnc1-c1ccoc1C | i | -0.18 | -3.9%
O=C(NCc1cccs1)C1CCN(S(=O)(=O)c2cccc3nsnc23)CC1 | i | 1.5 | 0.8%
Cn1c(=O)c2c(ncn2CC(=O)Nc2ccc(Cl)cc2Cl)n(C)c1=O | i | 0.85 | 0.7%
CCOC(=O)c1nc(C)[nH]c1C(=O)OCC | i | 0.66 | -4.7%
O=C(Nc1ccc(-n2cnnn2)cc1)C1CCCN1C(=O)NC1CCCCC1 (stereo not given) | i | -0.86 | 1.0%
O=C(Cc1cccs1)NCCn1ccc2ccccc21 | i | -1.1 | 1.0%
CC1(C)CC(=O)c2c(Cc3ccccc3)n[nH]c2C1 | i | -1.1 | -8.5%
COc1ccc(/C(O)=C2/C(=O)C(=O)N(CCN3CCOCC3)C2c2ccccn2)cc1 (stereo not given) | i | 0.7 | 3.1%
Cc1cc(NC(=O)c2cccc(F)c2)no1 | i | . | -1.1%
CCOC(=O)N1CCC(Nc2nc3ccccc3n3nnnc23)CC1 | i | -0.58 | 16%

Pulled by structure from above (four):
SMILES | MT1-MMP promoter | WNV NS2B-NS3 inh | Hsc70 ATP site
COc1ccc(/C(O)=C2/C(=O)C(=O)N(CCN3CCOCC3)C2c2ccccn2)cc1 (stereo not given) | i | 0.7 | 3.1%
Cc1cccc(OCC(O)Cn2c(NCCCOC(C)C)nc3c2c(=O)[nH]c(=O)n3C)c1 (stereo not given) | i | 0.84 | -7.4%
O=c1c2ccccc2nnn1CSc1ccc2c(c1)OCCO2 | i | -1.9 | -2.7%
Cc1nc(SCc2cccc(F)c2)[nH]c(=O)c1C#N | i | 1.2 | -2.2%

The listing picks up; the two compounds before the break are reprinted first.
SMILES | MT1-MMP promoter | WNV NS2B-NS3 inh | Hsc70 ATP site
Cc1cc(NC(=O)c2cccc(F)c2)no1 | i | . | -1.1%
CCOC(=O)N1CCC(Nc2nc3ccccc3n3nnnc23)CC1 | i | -0.58 | 16%
COC(=O)C1C(=O)C2=C(CC1C)NC(C)=C(C(=O)OC1CCCCC1)C2c1ccc(N(C)C)cc1 (stereo not given) | i | . | -1.6%
COc1ccccc1C(=O)Nc1ccccc1SC | i | 1.4 | 1.8%
Cc1ccccc1OCC(O)Cn1c(=N)n(CCN2CCOCC2)c2ccccc21 (stereo not given) | i | 1.2 | 5.6%
NC(=O)C1(N2CCCCC2)CCN(C(=O)CSc2nc3ccccc3o2)CC1 | i | 2.1 | 3.7%
O=C(COc1ccccc1Cl)Nc1ccc(Cl)cn1 | i | -1.1 | 4.1%
CCOC(=O)N1CCN(C(=O)CN(c2ccc(OCC)cc2)S(C)(=O)=O)CC1 | i | . | -5.3%
COC(=O)[C@H](Cc1ccccc1)NC(=O)N1CCN(Cc2ccccc2)CC1 | i | 1.2 | -3.6%
COc1ccc(C2C(C(C)=O)=C(O)C(=O)N2c2nccs2)cc1OC (stereo not given) | i | -0.29 | -1.1%
CCC(=O)Nc1ccc(C(=O)Nc2ccc3c(c2)OCO3)cc1 | i | -0.38 | -11%
Cc1oc(-c2ccc(Cl)cc2)nc1CN1CCC(C(=O)NCc2ccco2)CC1 | i | -0.01 | 0.9%
O=C(CCSc1nnc2scc(-c3ccccc3)n12)NCc1ccc2c(c1)OCO2 | i | 0.21 | 4.0%
CC(Oc1ccc(Cl)cc1Cl)C(=O)Nn1cnnc1 (stereo not given) | i | . | 1.1%
COc1ccc(CN2C(=O)c3cccnc3C2Nc2ccc(OC)c(Cl)c2)cc1 (stereo not given) | i | -1.2 | 1.7%
CCCOc1ccc2c(=O)c(N3C(=O)c4ccccc4C3=O)c(C)oc2c1 | i | . | 5.1%
COc1cc(Br)c(CC(=O)O)cc1OC | i | -0.47 | -1.4%
COC(=O)C1=C(C)N(C)C(=O)NC1c1ccc(C)cc1 (stereo not given) | i | -1.3 | -1.7%
Cc1ccc(C)c(NC(=O)CSc2nnc(-c3ccco3)o2)c1 | i | 0.74 | -2.8%
COc1cc(OC)cc(C(=O)N2c3ccc(F)cc3CCC2C)c1 (stereo not given) | i | -0.06 | -2.8%
O=c1cc(CSc2ccccn2)nc(N2CCN(c3ccccc3)CC2)[nH]1 | i | -0.41 | 5.0%
COCCNC(=O)C1c2ccccc2C(=O)N(CCOC)C1c1ccc(F)cc1 (stereo not given) | i | -0.81 | -5.1%

Copied from the list:
In Hsc70 ATP site, CC(Oc1ccc(Cl)cc1Cl)C(=O)Nn1cnnc1 (stereo not given) reads 1.1%
In Hsc70 ATP site, COC(=O)C1=C(C)N(C)C(=O)NC1c1ccc(C)cc1 (stereo not given) reads -1.7%

New compounds follow.
SMILES | MT1-MMP promoter | WNV NS2B-NS3 inh | Hsc70 ATP site
CCOC(=O)CNC(=O)C(Cc1ccccc1)NS(=O)(=O)c1ccc2c(c1)CCC(=O)N2 (stereo not given) | i | -0.62 | 0.1%
Cc1sc2nc3c(C(=O)N4CCN(c5ncccn5)CC4)cccn3c(=O)c2c1C | i | 1.2 | -5.0%
CCCCCc1ccc(CC(=O)O)cc1 | i | 0.74 | 7.9%
CC(C)C(C(=O)NCc1ccco1)N(C(=O)CNS(=O)(=O)c1ccccc1)C1CCCC1 (stereo not given) | i | -0.77 | -3.2%
COC(=O)c1ccc2c(=O)n(CC3CCCO3)c(=S)[nH]c2c1 (stereo not given) | i | -1.1 | 4.5%
